# rRNA inh HTS = inhibitors of bacterial rRNA selective over humanized ribosomes | E. coli WT GFP vs humanized-ribosome RFP mutants, fluorescence, 24 h; hits give low values; DMSO median 0, no signal -100 | GFP signal change (wild-type ribosome), % (concentration not given with the values) | 350,000 tested, 1.6% active;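 active = significant combined selectivity score with lowered wild-type GFP, culture density cut under 30%, mutant RFP and density less affected; inactive = any of these conditions unmet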; note: one replicate is shown; some compounds called inactive have numbers as strong as hits
# FGF22 binding = shifts melting point of recombinant human FGF22; Q9HCT0; recombinant FGF22 thermal shift, SYPRO orange fluorescence; percent of sucrose octasulfate shift, DMSO zero; calls only at 9.99 µM; 340,000 tested, 1.5% active; AID 651658;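 active = melting point raised past a set limit in the mean and every replicate; three in four hits are not shown here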
# Target sequence (Q9HCT0 whole entry, looked up): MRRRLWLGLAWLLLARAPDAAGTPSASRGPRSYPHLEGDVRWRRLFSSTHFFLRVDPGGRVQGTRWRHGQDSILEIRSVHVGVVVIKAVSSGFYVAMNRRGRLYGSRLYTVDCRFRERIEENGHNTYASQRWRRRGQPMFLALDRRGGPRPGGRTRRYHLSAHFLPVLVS
# MLL AF4-AF9 inh = blocks AF4 peptide binding to human AF9; AlphaScreen, biotin-AF4 peptide binding to FLAG-AF9; inhibition, % at 10 µM; 350,000 tested, 0.47% active; AID 651704;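 active = every replicate reaching a set inhibition limit, whatever the replicate mean, cut at about 25% in these data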;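 note: 0% = plate neutral control median and 100% = total signal loss; the record names both 10 and 1 µM as test concentration; the first replicate is given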
# Target sequence (P42568 whole entry, looked up): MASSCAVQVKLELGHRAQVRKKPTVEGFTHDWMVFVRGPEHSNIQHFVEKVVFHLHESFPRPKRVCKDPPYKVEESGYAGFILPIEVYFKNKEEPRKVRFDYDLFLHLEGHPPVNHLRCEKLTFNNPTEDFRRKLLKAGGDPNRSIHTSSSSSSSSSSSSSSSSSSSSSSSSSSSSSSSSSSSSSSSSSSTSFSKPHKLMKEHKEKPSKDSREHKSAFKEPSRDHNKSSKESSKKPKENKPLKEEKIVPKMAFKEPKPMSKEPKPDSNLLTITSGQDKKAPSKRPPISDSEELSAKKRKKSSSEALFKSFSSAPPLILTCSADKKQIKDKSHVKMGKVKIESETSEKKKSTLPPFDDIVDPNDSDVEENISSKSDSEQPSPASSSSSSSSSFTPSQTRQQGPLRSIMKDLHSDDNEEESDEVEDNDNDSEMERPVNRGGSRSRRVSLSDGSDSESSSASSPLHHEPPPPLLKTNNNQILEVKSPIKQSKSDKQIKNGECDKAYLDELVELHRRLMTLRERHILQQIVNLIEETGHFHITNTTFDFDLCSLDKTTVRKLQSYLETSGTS
# rRNA inh HTS OD600 = further read-out of rRNA inh HTS, marked with its call; OD600 change, %; measured here: OD600 growth;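 optical density of the mix in the first replicate; 0 = DMSO median and -100 = no signal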
# rRNA inh HTS RFP = second read-out of rRNA inh HTS, no call of its own (marks repeat the call); RFP signal change, %; measured here: RFP humanized mutant strains;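 first replicate; 0 = DMSO median and -100 = no signal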
# Active calls of the source: *; i = inactive; / = no result given; & = joins results of further samples. An excerpt. The share of hits here may be higher or lower than overall.
nr	SMILES	rRNA inh HTS	rRNA inh HTS OD600	rRNA inh HTS RFP	FGF22 binding	MLL AF4-AF9 inh
1	COc1ccc(S(=O)(=O)N(C)C[C@H]2OCCCC[C@H](C)Oc3ccc(NS(=O)(=O)c4cn(C)cn4)cc3C(=O)N([C@H](C)CO)C[C@@H]2C)cc1	-5	-9	1.7	i	1.5
2	COc1cccc(S(=O)(=O)N2CCC3(CC2)CN(C(=O)Nc2cccc(F)c2)[C@H](CO)c2[nH]c4cc(OC)ccc4c23)c1	1	10	1.9	i	2.6
3	CN(C)C(=O)C[C@H]1CC[C@@H]2[C@H](COC[C@H](O)CN2C(=O)C2CCOCC2)O1	3	7	13	i	-1.8
4	COCC#Cc1cnc2c(c1)C(=O)N([C@@H](C)CO)C[C@@H](C)[C@H](CN(C)S(=O)(=O)c1cn(C)cn1)O2	2	27	0.3	i	-0.4
5	CN(C)c1ccc2c(c1)[C@@H]1C[C@@H](CC(=O)NCC3CC3)O[C@@H](CO)[C@@H]1O2	-1	10	4.9	i	-8.4
6	CCC(=O)N1CC2(CN(Cc3ccccc3Cl)C2)c2c([nH]c3cc(OC)ccc23)[C@H]1CO	-55	-79	-13	i	30*
7	COc1ccc(N2CC(C)(C)[C@H](CC(=O)Nc3ccccc3)C2=O)cc1	13	12	3.3	i	-4.3
8	Cc1cccc(C2NC(=O)c3ccccc3N2)c1 (centres undefined)	14	11	-1.4	i	-5.8

# An excerpt of these results, in transposed form.
(6) CCC(=O)N1CC2(CN(Cc3ccccc3Cl)C2)c2c([nH]c3cc(OC)ccc23)[C@H]1CO
(2) COc1cccc(S(=O)(=O)N2CCC3(CC2)CN(C(=O)Nc2cccc(F)c2)[C@H](CO)c2[nH]c4cc(OC)ccc4c23)c1
(5) CN(C)c1ccc2c(c1)[C@@H]1C[C@@H](CC(=O)NCC3CC3)O[C@@H](CO)[C@@H]1O2
(8) Cc1cccc(C2NC(=O)c3ccccc3N2)c1 (centres undefined)
(1) COc1ccc(S(=O)(=O)N(C)C[C@H]2OCCCC[C@H](C)Oc3ccc(NS(=O)(=O)c4cn(C)cn4)cc3C(=O)N([C@H](C)CO)C[C@@H]2C)cc1
(4) COCC#Cc1cnc2c(c1)C(=O)N([C@@H](C)CO)C[C@@H](C)[C@H](CN(C)S(=O)(=O)c1cn(C)cn1)O2
compound no.,6,2,5,8,1,4
rRNA inh HTS,-55,1,-1,14,-5,2
rRNA inh HTS OD600,-79,10,10,11,-9,27
rRNA inh HTS RFP,-13,1.9,4.9,-1.4,1.7,0.3
FGF22 binding,i,i,i,i,i,i
MLL AF4-AF9 inh,30*,2.6,-8.4,-5.8,1.5,-0.4

# Later entries.
nr	SMILES	rRNA inh HTS	rRNA inh HTS OD600	rRNA inh HTS RFP	FGF22 binding	MLL AF4-AF9 inh
9	C[C@H](CO)N1C[C@H](C)[C@H](CN(C)Cc2ccc(Cl)c(Cl)c2)Oc2ccc(NS(C)(=O)=O)cc2C1=O	-8	-11	-2.1	i	-1.7
10	C[C@@H]1CN([C@@H](C)CO)S(=O)(=O)c2ccc(C3=CCCCC3)cc2O[C@@H]1CN(C)C(=O)c1ccccc1	-6	-15	3.6	i	5.7
11	C[C@@H]1CN([C@@H](C)CO)C(=O)c2ccccc2-c2ccccc2CO[C@@H]1CN(C)C(=O)Nc1ccc2c(c1)OCO2	-1	9	-3.1	i	-3.2
12	COc1ccc(CN(C)C[C@H]2Oc3ccc(NC(=O)Cc4ccccc4)cc3CC(=O)N([C@H](C)CO)C[C@H]2C)cc1	-2	-2	3.2	i	-12
13	CC(C)NC(=O)Nc1ccc2c(c1)C(=O)N([C@@H](C)CO)C[C@H](C)[C@H](CN(C)C(=O)Nc1ccc3c(c1)OCO3)OCCCC[C@H](C)O2	3	0	-2.5	i	1.6
14	O=C(Nc1cc(F)ccc1F)N1C[C@@H]2[C@H](c3ccccc31)[C@@H](CO)N2Cc1cccnc1	-3	0	0.2	i	-4.6
15	O=C(Nc1ccc(F)cc1)N[C@@H]1CC[C@@H](CCNC(=O)c2cc(Cl)cc(Cl)c2)O[C@@H]1CO	-4	4	-4.1	i	-1.9
16	O=C(Nc1ccc(F)cc1)N[C@@H]1C=C[C@H](CC(=O)N2CCOCC2)O[C@H]1CO	-2	2	-0.3	i	1.6
17	O=C(c1ccco1)N1CCN(C(=O)c2ccco2)CC1	6	12	5.5	i	-3.9
18	C[C@@H]1CN([C@H](C)CO)C(=O)Cc2cc(NC(=O)NC3CCCCC3)ccc2O[C@@H]1CN(C)CC1CCCCC1	-1	-29	23	i	2.5
19	O=C1OCC2=C1C(c1ccc(Cl)cc1)c1cc3c(cc1O2)OCO3 (centres undefined)	10	18	1.6	i	-19
20	CO[C@H]1CN(C)C(=O)c2cc(NS(C)(=O)=O)ccc2OC[C@@H](C)N(Cc2cncnc2)C[C@H]1C	7	4	-1.9	i	0.7
21	CNC[C@@H]1Oc2c(NC(=O)C3CC3)cccc2C(=O)N([C@H](C)CO)C[C@H]1C	5	10	-2.2	i	-2.0
22	COCC#Cc1cnc2c(c1)C(=O)N([C@@H](C)CO)C[C@@H](C)[C@@H](CN(C)C(=O)Nc1c(C)noc1C)O2	1	2	-2.6	i	-5.0
23	COCC(=O)N(C)C[C@@H]1Oc2ncc(/C=C/c3ccccc3)cc2C(=O)N([C@H](C)CO)C[C@@H]1C	5	24	3.6	i	-0.9
24	CN(C)CC(=O)Nc1ccc2c(c1)[C@@H]1C[C@H](CC(=O)NCc3ccc(-c4ccccc4)cc3)O[C@@H](CO)[C@@H]1O2	-2	-3	2.6	i	6.0
25	O=C1c2ccccc2C(c2nc3ccccc3[nH]2)N1c1ccccc1 (centres undefined)	4	9	0.3	i	-3.2
26	COc1cccc2nc3c(C(=O)NCCN(C)C)cccc3cc12	-16	-58	0.0	i	5.0
27	COc1cc(OC)c(-c2oc3ccccc3c(=O)c2O)c(OC)c1	-5	-9	1.4	i	7.6
28	CN1[C@@H]2c3ccc(-c4ccncc4)c(=O)n3C[C@H]1[C@H](CO)[C@H]2C(=O)NCCc1ccccc1	4	-2	-1.2	i	-1.4
29	CN(C)CCCNC(=O)C[C@H]1C=C[C@@H](NS(=O)(=O)c2ccccc2)[C@H](CO)O1	1	0	1.2	i	2.5
30	O=C(Nc1ccc2c(c1)[C@@H]1C[C@@H](CC(=O)N3CCCCC3)O[C@H](CO)[C@@H]1O2)c1cccnc1	-1	-5	-0.8	i	-1.3
31	C[C@H](NC(=O)c1ncn2c1C(=O)NC[C@@H]2C)c1ccccc1	8	3	1.7	i	-2.8
32	COc1ccc(-c2cnc3c(c2)C(=O)N([C@@H](C)CO)C[C@@H](C)[C@H](CN(C)C(=O)Cc2ccccn2)O3)cc1	0	0	0.4	i	-4.6
33	CN1C(=O)c2cc(NC(=O)C3CCCC3)ccc2OC[C@H]2O[C@@H](CC(=O)NCC3CC3)CC[C@H]21	0	5	-0.9	i	-0.4
34	C[C@@H]1CN([C@@H](C)CO)C(=O)CCCn2cc(nn2)CO[C@@H]1CN(C)S(=O)(=O)c1ccccc1C#N	0	2	-0.3	i	0.3
35	CCCC(=O)Nc1ccc2c(c1)C(=O)N(C)[C@H]1CC[C@H](CC(=O)O)O[C@H]1CO2	0	3	-0.8	i	-2.0
36	COc1ccccc1CCn1cnc(-c2cccc(Br)c2)c1C(C)C	-53	-68	-16	i	3.4
37	CCCN(C)C[C@@H]1Oc2cc(C#Cc3ccc(OC)cc3)ccc2S(=O)(=O)N([C@H](C)CO)C[C@@H]1C	-3	3	14	i	6.7
38	Cn1c(=O)c2cc(NC(=O)NCc3ccccc3)ccc2n1Cc1ccc(Cl)cc1	11	11	-5.1	i	-1.1
39	O=C(NC1CCCC1)N[C@@H]1C=C[C@H](CC(=O)N2CCOCC2)O[C@@H]1CO	2	6	-1.9	i	1.2
40	Cc1noc(C)c1NC(=O)Nc1ccc2c(c1)CC(=O)N([C@@H](C)CO)C[C@@H](C)[C@@H](CN(C)Cc1ccc(C(F)(F)F)cc1)O2	0	-4	0.9	i	-5.3
41	N#C[C@@H]1[C@@H](c2ccc(C#CC3CC3)cc2)[C@H](CO)N1S(=O)(=O)c1ccccc1	2	2	0.4	i	-0.6
42	C[C@@H]1CN([C@@H](C)CO)C(=O)c2cc(NC(=O)Cn3cnnn3)ccc2O[C@H]1CN(C)S(=O)(=O)c1ccc(F)cc1	6	9	-2.4	i	-2.0
43	C[C@H](CO)N1C[C@H](C)[C@H](CN(C)C(=O)CCCN(C)C)OCCCC[C@H](C)Oc2ccc(NS(=O)(=O)c3cccs3)cc2C1=O	1	0	1.8	i	-4.5
44	O=C(C[C@@H]1CC[C@@H]2[C@H](COC[C@H](O)CN2S(=O)(=O)c2ccccc2)O1)NCc1ccc(-c2ccccc2)cc1	-7	-24	1.9	i	6.0
45	COC(=O)C1=C(C)N(Cc2ccc(C(F)(F)F)cc2)C(=NCc2ccccc2)NC1c1ccccc1 (centres undefined)	-56	-78	-16	/	11
46	Cc1ccccc1S(=O)(=O)N1CC[C@H]2[C@H](CO)Nc3ccc(-c4ccc(C#N)cc4)cc3[C@H]21	-2	10	19	i	-3.1
47	CC(C)NC(=O)N(C)C[C@@H]1OCCCC[C@@H](C)Oc2ccc(NS(=O)(=O)c3ccc(F)cc3)cc2C(=O)N([C@@H](C)CO)C[C@H]1C	-5	2	0.8	i	-2.2
48	COc1ccc2c3c([nH]c2c1)[C@H](CO)N(Cc1cccc(Cl)c1)CC31CCN(C(C)=O)CC1	0	-1	4.1	i	-0.8
49	O=C(C[C@H]1CC[C@@H]2[C@H](COC[C@@H](O)CN2S(=O)(=O)c2cccc(Cl)c2)O1)N1CCOCC1	1	0	-1.5	i	-3.5
50	COc1cccc(-c2ccc3n(c2=O)C[C@H]2[C@H](CO)[C@@H](C(=O)NCC4CC4)N(C)[C@@H]32)c1	-2	1	-1.2	i	-1.6
51	O=C(NCC1CCN(C(=O)C(=O)c2cc3ccccc3o2)CC1)c1ccncc1	7	1	17	i	-10
52	Cc1noc(C)c1NC(=O)Nc1cccc2c1O[C@H](CN(C)CC1CCCCC1)[C@H](C)CN([C@H](C)CO)C2=O	0	2	-1.0	i	-7.4
53	CC(C)C#Cc1ccc2c(c1)O[C@@H](CN(C)Cc1ccccn1)[C@H](C)CN([C@H](C)CO)S2(=O)=O	-43	-52	22	i	7.7
54	COc1cc(OC)c(C=NNC(=S)NC23CC4CC(CC(C4)C2)C3)c(OC)c1	-4	-16	8.0	i	3.3
55	C[C@H](CO)N1C[C@H](C)[C@@H](CN(C)CC2CCCCC2)Oc2ccc(NC(=O)Nc3ccc4c(c3)OCO4)cc2C1=O	1	-5	-1.6	i	13
56	COc1ccc(NC(=O)Nc2cccc3c2O[C@@H](CN(C)Cc2ccccc2)[C@H](C)CN([C@H](C)CO)C3=O)cc1	-5	-8	1.4	i	4.9
57	CNC(=O)C[C@H]1CC[C@@H]2[C@H](COc3ccc(NC(=O)c4ccc(F)cc4)cc3C(=O)N2C)O1	2	9	-0.7	i	-0.5
58	CC(C)CC#Cc1ccc2c(c1)O[C@@H](CN(C)Cc1ccc(F)cc1)[C@H](C)CN([C@H](C)CO)S2(=O)=O	-1	8	-4.0	i	3.8
59	COc1ccc(S(=O)(=O)N(C)C[C@H]2Oc3c(NC(=O)c4nc5ccccc5s4)cccc3C(=O)N([C@H](C)CO)C[C@@H]2C)cc1	-7	-5	-4.8	i	-1.4
60	O=C(C[C@H]1CC[C@H]2[C@@H](COC[C@H](O)CN2CCc2ccccc2)O1)NCc1ccccc1	4	21	-3.5	i	-1.4
61	C[C@H](CO)N1C[C@H](C)[C@H](CN(C)CC2CCCCC2)Oc2ccc(NC(=O)CCCN(C)C)cc2C1=O	2	3	-1.6	i	-0.8
62	O=C(C[C@H]1CC[C@H](NC(=O)c2cnccn2)[C@H](CO)O1)NCc1ccccc1F	1	0	1.4	i	0.7
63	O=C1CCN(CCCN2CCC(=O)N(Cc3ccccc3)C2=S)C(=S)N1Cc1ccccc1	12	14	-0.7	i	-17
64	C[C@H](CO)N1C[C@H](C)[C@@H](CN(C)S(=O)(=O)c2cccc(C#N)c2)OCc2cn(nn2)CCCC1=O	6&0	7&-1	-1.3&-1.0	i	0.4&-2.0

# Next part.
nr	SMILES	rRNA inh HTS	rRNA inh HTS OD600	rRNA inh HTS RFP	FGF22 binding	MLL AF4-AF9 inh
65	CC1(C)OC(=O)C2=C(CC(CCc3ccccc3)OC2c2ccc(Cl)cc2)O1 (centres undefined)	6	6	12	i	-0.8
66	COCCNC(=O)C[C@@H]1C[C@H]2c3cc(NC(=O)c4ccc5c(c4)OCO5)ccc3O[C@H]2[C@@H](CO)O1	0	5	-1.5	i	-1.5
67	CCC(=O)Nc1ccc2c(c1)C(=O)N(C)[C@@H]1CC[C@H](CC(=O)NC3CCCC3)O[C@H]1CO2	1	12	0.3	i	-0.5
68	CC1=C(C(=O)Nc2ccccc2C(=O)N2CCN(c3ccccc3)CC2)SCCO1	11	9	2.6	i	4.0
69	O=C(C[C@H]1CC[C@@H]2[C@H](COC[C@@H](O)CN2Cc2cccc(-c3ccncc3)c2)O1)N1CCN(c2ccccc2)CC1	-7	-14	1.7	i	6.8
70	CO[C@H]1CN(C)C(=O)c2cc(NC(=O)c3ccc4c(c3)OCO4)ccc2OC[C@H](C)N(CCC(F)(F)F)C[C@H]1C	-6	-11	1.6	i	2.4
